TAR Tat displ = TAR RNA-Tat peptide displacers, HIV-1, primary screen, biochemical, FRET, FAM/TAMRA-labeled Tat. z-score (test concentration not listed). HIV-1 TAR RNA, Tat peptide displacement FRET; hits give high values. 100,000 compounds, 0.6% hits;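 also: score is relative to mean and SD of negative controls; some compounds called inactive have numbers as strong as hits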
CDC25B CDK2 inh = primary biochemical HTRF screen for blockers of M-phase inducer phosphatase 2 binding to CDK2/cyclin A. P30305+P24941. HTRF CDC25B-CDK2/CyclinA binding, anti-His/anti-Flag; hits give high values. z-score (no concentration beside the values). 94,000 compounds, 0.72% hits;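 also: score is relative to mean and SD of negative controls; strong numbers were not always called active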
An asterisk follows results filed as active; . = no result given.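 The calls were made as follows: active = z-score from 3 up in half or more of its runs; inactive = the rest.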

SMILES | TAR Tat displ | CDC25B CDK2 inh
CCCCN(Cc1cc2ccccc2[nH]c1=O)S(=O)(=O)c1ccccc1 | 1.3 | -2.5
CC1(C)Cc2c(c(N3CCCCC3)nc3sc(C#N)c(N)c23)CO1 | . | -3.5
O=C(NCc1ccccc1Cl)c1nc2c(nnn2CC2CCCO2)c(=O)[nH]1 (stereo unspecified) | -0.69 | -1
Cc1cc(NC(=O)Nc2ccccc2)no1 | -0.72 | -1.4
O=C(Nc1nc(-c2ccc(F)cc2)ns1)c1ccco1 | 1.4 | 1.8
COc1cc(/C=C2\N=C(c3ccccc3F)OC2=O)ccc1OCc1ccccc1F | . | 0.52
O=C(c1cc2c(Cl)ccc3c2n1CCO3)N1CCN(c2ccc(F)cc2)CC1 | 0.26 | .
Cc1c(Cl)cccc1NS(=O)(=O)c1ccc2c(c1)N(C)CCO2 | 0.48 | .
Cc1cc(C)n2nc(-c3ccc(Cl)cc3)nc2n1 | 1.6 | -1.6
Cn1nc(C(=O)NC2CCCc3ccccc32)c2c1-c1ccccc1OC2 (stereo unspecified) | 0.22 | -0.1
COc1ccc(OC)c(NC(c2ccc(F)cc2)c2nnc(-c3ccccc3)o2)c1 (stereo unspecified) | -0.69 | -0.85
COc1cccc2c(=O)c(NC(=O)N3CCCC(C(N)=O)C3)c[nH]c12 (stereo unspecified) | -0.44 | -2.6
Brc1cccc(-c2nnc3sc(CNCc4ccc5c(c4)OCO5)cn23)c1 | 1.1 | .
CCCn1c(SCCO)nc2ccccc21 | 1.7 | -0.88
O=C(O)CCc1nnc2ccc(NCc3ccccc3)nn12 | 0.8 | -0.6
O=C(NCc1ccc(F)cc1)c1c(O)nc2ccccn2c1=O | 0.82 | -0.72
COCCNc1c(-c2ccccc2)c(=O)c1=O | 1.4 | .
CC[C@@H](C)[C@H]1O[C@]2(CC[C@@H]1C)C[C@@H]1C[C@@H](C/C=C(\C)[C@@H](O[C@H]3C[C@H](OC)[C@@H](O[C@H]4C[C@H](OC)[C@@H](O)[C@H](C)O4)[C@H](C)O3)[C@@H](C)/C=C/C=C3\CO[C@@H]4[C@H](O)C(C)=C[C@@H](C(=O)O1)[C@]34O)O2 | . | -1.9
CCOc1ccc(CCNc2nc3ccccc3n3nnnc23)cc1OCC | -1.3 | -4.6
Cc1ccc(N2CC34C=CC(O3)C(C(=O)O)C4C2=O)cc1 (stereo unspecified) | 0.43 | 0.09
COc1cc(/C=c2\sc3nc4ccccc4n3c2=O)ccc1OCc1cc2c(cc1Cl)OCO2 | . | -2.8
CC(C)COC(=O)COc1ccc2c(=O)c(-c3ccccc3)coc2c1 | 0.08 | 0.9
O=C(Nc1nccs1)c1cc2ccccc2o1 | 0.5 | -0.5
CN1C(=O)/C(=C\c2ccccc2)C(=N)N1C(c1ccccc1)N1C(=N)/C(=C/c2ccccc2)C(=O)N1C (stereo unspecified) | . | -4.2
S=c1[nH]nc(Cc2ccsc2)n1Cc1ccccc1 | . | -1.7
Cn1ncc2c(NCc3ccccc3Cl)nc(N3CCCC3)nc21 | 1.7 | .
COc1cc2nc(/C=C/c3ccccc3)oc(=O)c2cc1OC | 1.6 | -2.8
CN(CCNC(=O)c1nn(C)c2c1COc1ccccc1-2)C1CCCCC1 | 0.23 | -0.81
CN(C)c1ccc(CN(Cc2ccco2)C(=O)c2cc(-c3ccc4c(c3)OCCO4)on2)cc1 | 1 | 2.5
O=C1CSC(c2ccccc2F)N1Cc1ccccc1 (stereo unspecified) | 1.6 | -1.4
Cc1nc2ncnn2c(C)c1CCC(=O)N1CCOCC1 | 0.28 | 1.7
CCOC(=O)C1C2C=CC3(CN(c4ccc(OC)cc4)C(=O)C13)O2 (stereo unspecified) | 2.5 | -0.05
CC(=O)N1c2ccc(S(=O)(=O)NCC3CCC(C(=O)NC4CCCCC4)CC3)cc2CC1C (stereo unspecified) | 1.3 | .
CCOc1ccc(/C=C/c2nc(C#N)c(N3CCN(Cc4ccccc4)CC3)o2)cc1 | 0.59 | -1.3
CCOC(=O)c1cc(OC)c2cc(Cl)ccc2n1 | -0.89 | -2.6
O=C(O)C1C2CCC(O2)C1C(=O)Nc1cccnc1 (stereo unspecified) | . | 0.7
CC1CCC(NC(=O)Cn2cnc(S(=O)(=O)N3CCOCC3)c2)CC1 (stereo unspecified) | -1 | .
Cc1nnc2n1NC(c1ccc(F)cc1)C(C(=O)N1CCOCC1)S2 (stereo unspecified) | -0.94 | -0.98
Oc1ccccc1C1=NN2C(C1)c1cc(Cl)ccc1OC2c1ccncc1 (stereo unspecified) | -1.6 | -0.8
Cc1cc(NC(=O)Cn2c(=O)n(Cc3ccco3)c(=O)c3cc(Cl)ccc32)n[nH]1 | . | -1.1
COCCNC(=O)C1Cc2cc(S(=O)(=O)N3CCCC3)ccc2N1C(C)=O (stereo unspecified) | 0.88 | .
CC(=O)N1CC(C)Sc2ccc(S(=O)(=O)N3CCc4ccccc4C3)cc21 (stereo unspecified) | 0.84 | .
CCOc1ccc(OCC)c(NS(=O)(=O)c2cc(-c3csc(C)n3)ccc2C)c1 | 1.6 | .
CC1C(=O)N2CCCc3cc(S(=O)(=O)N4CCc5ccccc5C4)cc1c32 (stereo unspecified) | 2.9 | .
CC1Oc2ccc(C(=O)c3cc4ccccc4o3)cc2NC1=O (stereo unspecified) | 0.22 | -2.9
O=C1CC(c2ccccc2F)C2=C(CC(c3ccc(F)cc3)CC2=O)N1 (stereo unspecified) | 1.1 | -0.29
CC1=C(C(=O)NCc2ccccn2)C2(CCN(S(C)(=O)=O)CC2)OC1=O | -0.37 | .
Cc1c(C(=O)O)ccc2c1NC(c1cccc3ccccc13)C1CC=CC21 (stereo unspecified) | . | -0.15
COC(=O)c1cc(S(=O)(=O)NCc2cccs2)c[nH]1 | 4.6 | .
COc1ccc(NC(=O)CSc2nnc(C)n3c2cc2sccc23)cc1OC | 2.7 | .
Cc1ccc(CNC(=O)CN2C(=O)CSc3sc(CC(C)C)cc32)o1 | -0.19 | .
CCN1CCN(c2nc(NCc3ccc(Cl)cc3)c3cnn(C)c3n2)CC1 | 0.82 | .
CN1C(=O)C(CC(=O)O)Sc2ccc(S(=O)(=O)N(C)C)cc21 (stereo unspecified) | 0.36 | .
Cc1ccc(S(=O)(=O)NC2=NCN(C3CCCCC3)CN2)cc1 | -1.1 | 1.1
CCOC(=O)c1c(C)cc(O)cc1O | 1.1 | .
CSc1ccc(/C=C(\C#N)C(N)=O)cc1 | . | -1.7
Cc1cc(C)c(Cn2cccc2CNC(=O)NC2CCCCC2)c(C)c1 | -0.83 | -0.53
CC1CCCC(C)N1C(=O)C1=CC(c2ccco2)=NS(=O)(=O)N1C (stereo unspecified) | 0.51 | -1.6
O=C(Cn1cnc(S(=O)(=O)N2CCCC2)c1)Nc1ccccc1 | -0.49 | .
O=c1c2nnn(Cc3ccccc3F)c2ncn1Cc1ccccc1F | 1.8 | -0.39
Following part
SMILES | TAR Tat displ | CDC25B CDK2 inh
O=C(CSc1nnc2c3c4c(sc3ncn12)CCCC4)Nc1ccc(Br)cc1 | -0.09 | -1.5
CN1CCC2(N3CCOCC3)C(C1)N=NN2c1cc(C(F)(F)F)cc(C(F)(F)F)c1 (stereo unspecified) | . | 1
Cc1cc(Nc2ccc(C)c(Br)c2)n2ncnc2n1 | 1.9 | -1.5
CS/C(N)=C\C(C)=O | . | -2.4
CCC(=O)c1cn(CC(=O)O)c2ccccc12 | 1.7 | -1.3
O=C(NCc1csc(-c2cccs2)n1)c1nc2ccccc2s1 | . | -1.4
CCn1c2ccccc2n2cc(-c3ccc4c(c3)OCO4)nc12 | 1.3 | -1.4
Cc1ccccc1-c1noc2ncnc(NCCc3ccsc3)c12 | -0.12 | .
Cc1nn(C)cc1CNC(=O)c1cnn2c(C(F)(F)F)cc(-c3ccc(Br)cc3)nc12 | 1.7 | -1.7
O=C1c2[nH]nc(-c3ccccc3O)c2C(c2ccc(OCc3ccccc3)cc2)N1CCO (stereo unspecified) | 1.9 | -1.5
COc1cccc2c1Oc1ncccc1N(C(=O)CCC(=O)O)C2 | 0.06 | 1.8
O=C1c2cccc3c(Cl)ccc(c23)C(=O)N1c1cccc(O)c1 | 1.3 | -0.83
O=C(c1ccco1)N1CCN(C(=O)C2CCN(c3ccc(-c4cccs4)nn3)CC2)CC1 | 1.7 | .
CCOC(=O)c1c(C)oc2ncnc(NC(C)(C)CO)c12 | 0.42 | 1.5
O=C(Nc1nnc(SCc2ccccc2)s1)c1cc(-c2ccc3c(c2)OCCO3)on1 | -0.38 | -2.1
COc1ccc(CNS(=O)(=O)c2cn(C)cn2)cc1 | 1.8 | .
O=C(NNS(=O)(=O)c1ccc(Cl)c(Cl)c1)c1sccc1-n1cccc1 | . | -1.6
CCOc1ccc(NC(=O)C2=Cc3cc(Br)ccc3OC=C2)cc1 | 0.61 | -1.2
CC(C)Cc1nc(NC2CCCCC2)c(C#N)c2c1COC(C)(C)C2 | 1.6 | -2.3
CSc1cccc(NC(=O)C2CCN(C(=O)c3cnn(-c4ccccc4)c3-n3cccc3)CC2)c1 | -1.2 | -1.1

Complete entries as entered above.
`O=C1CC(c2ccccc2F)C2=C(CC(c3ccc(F)cc3)CC2=O)N1` (stereo unspecified) across the screens: TAR Tat displ = 1.1; CDC25B CDK2 inh = -0.29
`O=C(NCc1csc(-c2cccs2)n1)c1nc2ccccc2s1` across the screens: TAR Tat displ = .; CDC25B CDK2 inh = -1.4

The main list resumes with the 3 entries that preceded the break.
SMILES | TAR Tat displ | CDC25B CDK2 inh
CCOc1ccc(NC(=O)C2=Cc3cc(Br)ccc3OC=C2)cc1 | 0.61 | -1.2
CC(C)Cc1nc(NC2CCCCC2)c(C#N)c2c1COC(C)(C)C2 | 1.6 | -2.3
CSc1cccc(NC(=O)C2CCN(C(=O)c3cnn(-c4ccccc4)c3-n3cccc3)CC2)c1 | -1.2 | -1.1
CN(CCCNC(=O)C1CCN(c2nc3ccccc3n3cccc23)CC1)C1CCCCC1 | 2.4 | .
CN1C(C(=O)NCc2ccccn2)=CC(c2ccco2)=NS1(=O)=O | -0.67 | -0.13
Cc1nc2c(C)cccn2c(=O)c1NC(=O)c1ccccc1Br | 0.43 | .
CCN(CC)S(=O)(=O)/N=C/c1ccc(Cl)c(Cl)c1 | . | -2.4
CSc1cccc(N2C(=O)N(Cc3ccc(C)cc3)C3CS(=O)(=O)CC32)c1 (stereo unspecified) | 1.8 | .
CC(=O)OCC12COC(c3ccccc3OC(C)=O)C(C(C)=CC1C)C2C (stereo unspecified) | 1.2 | -1.9
CCOC(=O)/C(C#N)=C(\N=C(/N)c1ccc(C(F)(F)F)cc1)Nc1ccc(Cl)cc1 | . | -2.4
COc1ccc(C2c3c(-c4cc(C)ccc4O)n[nH]c3C(=O)N2CCO)cc1OC (stereo unspecified) | -0.21 | -0.58
O=C(Nc1ccc(Br)cn1)C(Cc1ccccc1)N1Cc2ccccc2C1=O (stereo unspecified) | -2.5 | .
S=c1nc2ccccc2c2nc(-c3ccccc3)[nH]n12 | . | -2.5
O=C(Nc1sc2c(c1C(=O)NCC1CCCO1)CCCC2)c1cc(=O)c2cc(Cl)ccc2o1 (stereo unspecified) | -0.86 | -1.4
Cc1ccc2ncc(C(=O)N3CCN(c4ccccc4)CC3)c(=O)n2c1 | 0.6 | -1.4
O=C1C(=O)N(C(=O)Nc2ccccc2)c2ccccc21 | -0.39 | .
CCC(Sc1nncn1C)C(=O)Nc1nc2c(s1)CCCC2 (stereo unspecified) | . | 0.2
O=C1CCCC2=C1C(c1ccc(Br)cc1)c1c([nH]c(=S)[nH]c1=O)N2 (stereo unspecified) | . | 0.69
CCc1ccc(-n2nnc(-c3nc(-c4ccc(OC)cc4)no3)c2C)cc1 | 0.68 | .
Cc1cc(C)c2c(-n3c(C)ccc3C)nn(CC(=O)NCc3cccs3)c2n1 | 0.54 | .
O=C1c2cccnc2C(=O)N1Cc1ccc(F)cc1S(=O)(=O)NCc1ccc2c(c1)OCO2 | -0.58 | .
Fc1cccc(-c2nn3c(Cn4cnc5ccccc54)nnc3s2)c1 | 1.6 | 0.02
Cc1cc(C)c2c(n1)nn1c(C)c(CCC(=O)NCc3ccc4c(c3)OCO4)c(C)nc21 | 1.4 | -3.1
Clc1ccccc1CN1CCN(C2CCCCC2)CC1 | 1.7 | 0.18
Cc1oc2ncnc(N3CCOCC3)c2c1C(=O)N1CCN(c2ccc(F)cc2)CC1 | -0.41 | .
CCc1nnc2c3ccccc3nc(Nc3ccc(OC)c(Cl)c3)n12 | 0.9 | .
CCc1nn2c(NC3CCCCC3)c(-c3ccc(OC)cc3)nc2s1 | -0.1 | .
CCOc1ccc(S(=O)(=O)N2CCCN(Cc3noc4ccccc34)CC2)cc1 | 0.05 | .
Cc1cc(N2CCN(CCO)CC2)n2nc(C(F)(F)F)c(-c3ccc(Cl)cc3)c2n1 | 0.89 | -1.1
CSCCC(NC(=O)c1occc1C)C(=O)O (stereo unspecified) | 0.5 | -1.2

Random excerpt: 2 entries already listed, in no set order.
SMILES | TAR Tat displ | CDC25B CDK2 inh
Cc1cc(N2CCN(CCO)CC2)n2nc(C(F)(F)F)c(-c3ccc(Cl)cc3)c2n1 | 0.89 | -1.1
CCc1nnc2c3ccccc3nc(Nc3ccc(OC)c(Cl)c3)n12 | 0.9 | .

Screening data (PubChem)
